Assay outcomes deposited in PubChem by National Center for Advancing Translational Sciences (NCATS).
TRPML1 inh: inhibitors of human TRPML1 channel | AID 624415 | 390,000 compounds, 0.02% hits | TRPML1-inducible cells, Ca2+ dye fluorescence, FDSS; active compounds read low; inhibition of EC80 agonist-evoked calcium signal | activity change, negative = inhibition, % (no concentration beside the values) | Q9GZU1; in the data active means activity change below about -50%; inconclusive means about -30% to -50%; inactive means above about -30%;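 further: stimulus is agonist 54-4 at its EC80 concentration; on the % scale 0 is the no-effect control and ±100 the full control effect; compound concentration not given in the record; the text of the record puts the active cut at -80%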
Target sequence (Q9GZU1 whole entry, looked up): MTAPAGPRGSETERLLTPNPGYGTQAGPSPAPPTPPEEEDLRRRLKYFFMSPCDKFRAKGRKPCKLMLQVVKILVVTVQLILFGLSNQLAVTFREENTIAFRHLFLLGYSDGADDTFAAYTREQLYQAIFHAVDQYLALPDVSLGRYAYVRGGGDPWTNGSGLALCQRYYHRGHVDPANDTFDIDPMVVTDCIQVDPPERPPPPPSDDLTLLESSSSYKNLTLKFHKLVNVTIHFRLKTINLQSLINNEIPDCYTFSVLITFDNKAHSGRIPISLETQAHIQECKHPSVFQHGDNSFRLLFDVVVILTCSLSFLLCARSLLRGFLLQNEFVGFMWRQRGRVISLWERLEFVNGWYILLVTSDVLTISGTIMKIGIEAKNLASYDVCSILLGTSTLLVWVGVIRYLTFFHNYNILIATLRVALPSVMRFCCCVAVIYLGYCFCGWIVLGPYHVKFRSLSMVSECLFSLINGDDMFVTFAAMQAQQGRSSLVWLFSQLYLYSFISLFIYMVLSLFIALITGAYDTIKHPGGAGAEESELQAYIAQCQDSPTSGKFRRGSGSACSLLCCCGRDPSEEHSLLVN
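Calcium fluorescence in TRPML1-DL cells induced overnight with Tet: a 110 s read after compound pin addition, then a 110 s antagonist read after challenge with 54-4 at 4 uM final (EC80).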
Six1-Eya2 inh: inhibitors of human Six1/Eya2 interaction. Q15475+O00167. AlphaScreen GST-Six1/His-Eya2 binding, biochemical; active compounds read low; control for the full effect not named in the record. activity change, % (test concentration not listed). 360,000 compounds, 0.56% hits; in the data active = activity change below about -65%; inconclusive = about -30% to -65%; inactive = above about -30%; further: on the % scale 0 is the no-effect control and ±100 the full control effect
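Homogeneous AlphaScreen proximity assay pairing GST-Six1 with His-tagged Eya2 (added as 5X mix: 250 nM and 500 nM) in 50 mM Tris pH 8.0, 300 mM NaCl, 1 mM TCEP. Glutathione donor and nickel acceptor beads; 1 h, 37 °C, dark.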
TRPML1 agonist: activates the human TRPML1 channel; TRPML1-expressing cells, Ca2+ dye fluorescence, FDSS; host cell line not named in the record; reference of the full effect not given here; 410,000 compounds, 0.12% hits; activation, % (test concentration not listed); AID 624414; in the data active = activation above about 50%; inconclusive = about 30% to 50%; inactive = below about 30%; further: 0% is about no effect; the text of the record puts the active cut at 80%
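TRPML1-DL cells, Tet-induced overnight (~16 h, 37 degrees C), loaded 45-90 min at room temperature with Ca8 no-wash calcium dye plus quencher. FDSS fluorescence: 10 s baseline, compound pin-transfer, 110 s agonist read, then EC80 54-4 (4uM final) and 110 s antagonist read.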
PINK1 modulator: changes PINK1 expression; PINK1 immunofluorescence, high-content cytometry, 24 h; Potency, µM (doses to about 76.6 µM), for inactives: at the highest dose activation (PINK1 increase), most hits filed as activators; 410,000 compounds, 0.2% hits; AID 624263; active = well fitted activation curve with a large enough effect; inconclusive = small, poorly fitted or top-dose-only effect; inactive = flat fitted curve, though single readings scatter; cell line not stated here;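 further: potency means the concentration at half of the fitted maximal effect; % of control where 0% means no effect; nearly all actives have a fitted effect of over 65% in size; a mitochondrial uncoupler was the plate control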
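Readout is PINK1 immunofluorescence, quantified alongside mitochondrial, cell and nuclear markers by laser-scanning microplate cytometry. Cells from a stable line were exposed to compound titrations (5 concentrations) for 24 hours, with CCCP controls.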
D2 agonist: agonists of human D2 dopamine receptor (beta-arrestin); P14416; DiscoveRx PathHunter D2 beta-arrestin, luminescence, 90 min; 100% = 57 uM dopamine signal; activation, % (concentration not given with the values); 360,000 compounds, 0.084% hits; AID 624465; in the data active = activation above about 40%; inconclusive = about 15% to 40%; inactive = below about 15%; further: the text of the record calls up to 30% inactive
Target sequence (P14416 whole entry, looked up): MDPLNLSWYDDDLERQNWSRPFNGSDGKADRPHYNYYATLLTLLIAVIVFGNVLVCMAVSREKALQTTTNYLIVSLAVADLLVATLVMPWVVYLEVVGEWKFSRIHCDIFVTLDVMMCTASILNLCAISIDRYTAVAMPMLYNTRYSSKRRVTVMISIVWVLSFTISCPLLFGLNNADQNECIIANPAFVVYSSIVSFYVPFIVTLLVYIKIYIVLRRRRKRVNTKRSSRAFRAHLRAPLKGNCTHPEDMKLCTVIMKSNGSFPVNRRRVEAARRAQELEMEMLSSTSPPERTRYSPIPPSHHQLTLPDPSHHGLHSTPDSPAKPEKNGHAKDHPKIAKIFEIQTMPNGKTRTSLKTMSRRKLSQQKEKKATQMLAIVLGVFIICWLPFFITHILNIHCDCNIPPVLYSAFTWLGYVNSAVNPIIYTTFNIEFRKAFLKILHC
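Agonist mode: compounds alone added to overnight-plated D2 PathHunter cells for 90 min at 37 C, with 57 uM final dopamine (EC100) defining full response. Beta-arrestin recruitment detected by chemiluminescent reagent, read after 1 h at ambient temperature.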
CtBP-E1A inh: inhibitors of CtBP/E1A interaction; activity change, % (no concentration beside the values); 340,000 compounds, 0.49% hits; AID 651724; AlphaScreen GST-E1A/His-CtBP binding, 1536-well; active compounds read low; control for the full effect not named in the record; in the data active means activity change below about -65%; inconclusive means about -30% to -65%; inactive means above about -30%; further: on the % scale 0 is the no-effect control and ±100 the full control effect
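In 5 uL wells, 23 nL compound meets equimolar GST-E1A and His-CtBP (5X stock 125 nM each) for 2 h, 37 °C. Beads (5X, 50 ug/mL) then 1 h, 37 °C, dark.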
* = called active by the depositor; ? = inconclusive; nt = not tested or not shown; & = joins results of further samples; [ ] = remark or other dose.

The opening 6 entries as a preview:
SMILES	TRPML1 inh	Six1-Eya2 inh	TRPML1 agonist	PINK1 modulator	D2 agonist	CtBP-E1A inh
Cc1ccc(S(=O)(=O)N2CCN(C(=O)N3CCOCC3)C2C)cc1 (centres undefined)	5	0	-0.4	6.3%[38.3 µM]	-1.9	4
CC(C)c1ccc(CNc2n[nH]c(-c3ccco3)n2)cc1	1	nt	1.4	3.2%	nt	nt
COc1ccccc1Cc1c(-c2cccc(Br)c2)nc2ccc(Cl)cn12	nt	17	0.0	3.6%	-3.2	5
O=C(NCCO)c1ccc2[nH]c3c(c2c1)CCCC3	-8	1	0.1	1.4%	-2.7	-15
O=C(Nc1nc2n(n1)C(c1ccc(F)cc1)C=C(c1ccc(Cl)cc1)N2)c1ccco1 (centres undefined)	26	nt	-0.3	-0.6%	nt	nt
CC(NC(=O)Cc1ccc(S(=O)(=O)N2CCOCC2)s1)c1ccc(Cl)cc1Cl (centres undefined)	-14	-10	0.6	1.3%	5.7	9

The listing (from the top)
SMILES	TRPML1 inh	Six1-Eya2 inh	TRPML1 agonist	PINK1 modulator	D2 agonist	CtBP-E1A inh
Cc1ccc(S(=O)(=O)N2CCN(C(=O)N3CCOCC3)C2C)cc1 (centres undefined)	5	0	-0.4	6.3%[38.3 µM]	-1.9	4
CC(C)c1ccc(CNc2n[nH]c(-c3ccco3)n2)cc1	1	nt	1.4	3.2%	nt	nt
COc1ccccc1Cc1c(-c2cccc(Br)c2)nc2ccc(Cl)cn12	nt	17	0.0	3.6%	-3.2	5
O=C(NCCO)c1ccc2[nH]c3c(c2c1)CCCC3	-8	1	0.1	1.4%	-2.7	-15
O=C(Nc1nc2n(n1)C(c1ccc(F)cc1)C=C(c1ccc(Cl)cc1)N2)c1ccco1 (centres undefined)	26	nt	-0.3	-0.6%	nt	nt
CC(NC(=O)Cc1ccc(S(=O)(=O)N2CCOCC2)s1)c1ccc(Cl)cc1Cl (centres undefined)	-14	-10	0.6	1.3%	5.7	9
Cc1ccc2nc(C)cc(Nc3ccc4c(c3)OCCO4)c2c1	50	-7	0.3	-1.6%	-1.4	-14
CCOc1ccc(NC(=O)N2CCOc3ccccc32)cc1	-11	nt	-0.8	0.5%	nt	nt
CN(C)S(=O)(=O)N1CCN(CC(O)COc2ccc(-c3ccccc3)cc2)CC1 (centres undefined)	8	-1	0.6	0.9%	-3.7	-12
COc1ccc(OC)c(C2C(C(C)=O)=C(O)C(=O)N2CCN2CCOCC2)c1 (centres undefined)	6	4	-0.2	0.8%	0.0	-2
Clc1nc(-c2ccccn2)nc2scc(-c3ccccc3)c12	0	-73*	-0.5	1.7%	-5.3	-9
Nc1nc(SCC(=O)c2ccc(F)cc2)n[nH]1	-17	5	-1.1	-1.0%	1.2	7
Cc1cc(C)nc(N2CCN(CC(=O)NCc3ccccc3)CC2)n1	6	5	0.2	?	-0.4	2
COc1ccc(OC)c(NC(=O)Cn2ccn(-c3ccc(OC)c(OC)c3)c(=O)c2=O)c1	16	nt	-0.3	0.9%	nt	nt
CCNC(=S)Nc1c(C)n(C)n(-c2ccccc2)c1=O	14	3	1.8	1.1%	-19	-3
Cc1nnc(NC(=O)CSc2nccn2-c2cccc(Cl)c2)s1	11	nt	1.0	?	nt	nt
CCCCCCC(=O)Nc1nc(C)c(-c2csc(Nc3ccccc3OC)n2)s1	-2	-5	-0.3	2.9%	-4.3	-8
COCCn1c(Sc2ccc(C)cc2)nc2c1c(=O)[nH]c(=O)n2C	-11	25	0.0	5.2%	-3.0	0
O=C1c2ccc3c4c(ccc(c24)C(=O)N1c1ccc(O)cc1)C(=O)N(c1ccc(O)cc1)C3=O	-7	-1	-0.8	4.0%	?	-18
CCOC(=O)CN1C(=O)C(=O)c2cccc(C)c21	-8	5	-0.4	4.6%	-13	4
COc1cc(/C=N/NC(=O)c2ccc(COc3cc(C)ccc3C(C)C)cc2)cc(OC)c1O	-7	3	1.3	0.6%	4.3	4
Cc1[nH]c(=O)[nH]c(=O)c1NS(=O)(=O)c1ccccc1	6	-2	-0.5	0.6%	1.1	12
O=C(CSc1nnc(COc2ccccc2)n1Cc1ccco1)c1ccc(F)cc1	20	-4	17	1.1%	-1.7	-15
O=S(=O)(c1ccccc1)N(CC(F)(F)F)c1ccc(C(O)(C(F)(F)F)C(F)(F)F)cc1	23	5	1.5&2.7	?	-5.4	7
COc1cc(NC(=O)c2sc(C)nc2C)c(OC)cc1NC(=O)c1ccccc1	5	-25	0.5	8.9%	6.0	nt
CC(=O)OC[C@@H]1CN(Cc2ccccc2)C[C@H](n2cnc3c(Nc4ccccc4)ncnc32)O1	nt	-26	-0.1	-0.1%	-5.1	-20
Cc1cc(NC(=O)COc2ccccc2C(N)=O)no1	-2	0	-0.4	1.1%	3.0	4
CC(C)CC(=O)Nc1ccnc(-c2ccncc2)n1	10	0	1.1	1.8%	1.5	nt
COc1cccc(C(=O)NCC(=O)N/N=C(C)\C=C\c2ccccc2)c1	-8	-2	1.2	0.2%	-0.8	10
CCCC(=O)Nc1nnc(-c2ccco2)s1	9	6	-0.3	0.0%	2.2	5
NC(=O)[C@H](Cc1cc2ccccc2s1)NC(=O)[C@@H]1CC2(CC(c3cccc(NC(=O)[C@@H]4CCC(=O)N4)c3)=NO2)CN1C(=O)/C=C/c1c(F)cccc1Cl (some centres undefined)	15	-6	-0.4	1.9%	-0.8	-11
CCN(CC)S(=O)(=O)c1cccc(C(=O)Nc2ccc(Cl)cn2)c1	-9	-16	0.2	-2.8%	-2.3	-22
Clc1cccc(N/N=C/c2ccc(N3CCOCC3)cc2)c1	-26	-2	-0.3	3.4%	1.5	-13
COc1ccccc1N1CCN(C(=O)CSc2nc3ccccc3c(=O)n2CC2CCCO2)CC1 (centres undefined)	1	0	0.6	1.6%	-1.3	7
CCOC(=O)C1CCN(C(=O)c2ccc3c(c2)NC(=O)/C(=C\c2cccc(C)c2)S3)CC1	41	13	3.7	4.5%	-1.0	nt
CC(C)c1ccc(NC2CCCN(C(=O)c3cscn3)C2)cc1 (centres undefined)	?	-2	1.6	-0.7%	-5.4	-6
O=C(NC12CC3CC(CC(C3)C1)C2)c1ccc(COc2ccc(Cl)cc2[N+](=O)[O-])o1	-3	-16	2.2	0.8%	-2.2	-4
O=C(COC(=O)CCCNC(=O)c1ccc(Cl)cc1)Nc1cc(Cl)ccc1Cl	7	3	1.7	-0.9%	-4.3	-3
COc1ccc(-c2cc(-c3ccc(F)cc3)nc3c2COc2ccc(F)cc2-3)cc1	16	nt	-0.2	-0.2%	nt	nt
Cc1ccc(Cl)cc1N1CCN(C(=O)Cn2cnc3sc(C)c(S(=O)(=O)N4CCC(C)CC4)c3c2=O)CC1	-29	nt	-0.1	2.5%	nt	nt
O=C(COc1ccc([N+](=O)[O-])cc1)Nc1ccc(CN2CCOCC2)cc1	9	-1	0.8	-0.3%	-7.0	nt
O=C1Nc2ccccc2N(O)N1c1ccc(Cl)c(Cl)c1	-8	12	-0.2	0.5%	-0.4	0
COc1ccc(OC)c(CNC(=O)C2CCCN(c3ncnc4onc(-c5ccc(F)cc5)c34)C2)c1 (centres undefined)	29	nt	0.7	1.4%	nt	nt
CC(C)(C)c1nnc(NS(=O)(=O)c2cc(Cl)ccc2Cl)s1	-11	5	0.5	1.1%	-3.6	-4
COC(=O)c1c(C(=O)OC)c(C)n(Cc2cccnc2)c1C	-9	-1	-0.3	0.3%	-3.6	4
Cn1c(=O)c2ccccc2n(CC(=O)N2CCCc3ccccc32)c1=O	-3	-2	-0.6	2.1%	2.3	4
C(=N\N1CCOCC1)/c1cccs1	-1	0	-0.5	-2.0%	-8.6	-9
Cc1ccc(NC2=Nc3ccccc3N3C2=Nc2c(c(C)nn2-c2ccccc2)C3c2ccc(O)c(O)c2)cc1 (centres undefined)	54	0	3.8	?	5.1	15
COc1ccc(CC(=O)Nc2nc3n(n2)C(c2ccccc2)CC(=O)N3)cc1OC (centres undefined)	-14	-22	-0.7	-0.8%	-2.0	8
C=CCC1CCCC(=O)N2CCCC12 (centres undefined)	6	1	-0.5	0.0%	-0.4	4
COc1ccc(S(=O)(=O)NCC2CCCN(Cc3ccccc3C)C2)cc1 (centres undefined)	8	-12	0.3	0.4%	-7.4	1
COc1ccc2ccccc2c1/C=N/NC(=O)c1cc(C)[nH]n1	?	0	0.9	-0.5%	-3.5	-9
O=C1c2ccccc2C(c2nnnn2Cc2ccccc2)N1CCc1ccccc1F (centres undefined)	nt	6	-0.9	-0.3%	nt	3
CC(C)CCN1C(=O)c2ccccc2C1c1nnnn1C(C)C (centres undefined)	nt	2	-0.2	-0.7%	nt	1
CN(Cc1ccccc1)C(=O)c1cccc(NC(=O)Cc2ccc(NC(=O)C3CCCN(C(=O)C4CCC4)C3)cc2)c1 (centres undefined)	3	0	3.1	0.3%	1.0	0
O=C(O)C(c1ccccc1)C1(O)CC2CCC1C2 (centres undefined)	5	2	-0.2	-0.6%	-2.7	9
CCOC(=O)CNC(=O)c1c2c(nc3ccccc13)CCCC2	8	0	0.6	nt	-0.3	-3
CCN(CC(=O)NC(C)C)C(=O)Cc1ccc(C)c(C)c1	12	-3	-0.4	-0.3%	-1.8	2
COc1ccc(OC)c(NC(=O)C(C)N2c3cccc4cccc(c34)S2(=O)=O)c1 (centres undefined)	-11	3	5.3	15%	0.6	-15
COc1ccc(CCn2c(=O)c3cccnc3n(Cc3ccc([N+](=O)[O-])cc3)c2=O)cc1OC	-4	7	4.2	2.6%	0.3	3

Remaining list, next part
SMILES	TRPML1 inh	Six1-Eya2 inh	TRPML1 agonist	PINK1 modulator	D2 agonist	CtBP-E1A inh
COC(=O)c1ccccc1NC(=O)Cn1nnc(-c2ccc(OC)cc2)n1	-17&-14	6	0.1&0.0	13%	1.5	3
O=C(COc1ccccc1)N/N=C/c1ccc([N+](=O)[O-])o1	-1	-6	-0.6	?	8.7	nt
CCCN(CC(=O)Nc1ccccc1OC)C(=O)Cn1[nH]c(=O)c2ccccc2c1=O	6	2	-0.6	0.0%	-0.8	1
Cc1cc(C)n(-c2nc3ccccc3nc2Nc2cc(Cl)ccc2C)n1	41	nt	0.0	0.1%	nt	nt
O=C(Nc1ccc(Cl)cc1)c1ccc2sc([C@@H]3O[C@H](CO)[C@H](O)[C@H](O)[C@H]3O)nc2c1	-13	9	0.1	0.1%	-2.0	10
CCOc1ccc(C(=O)COC(=O)c2cccc(-n3cnnn3)c2)cc1	18	15	2.2	1.7%	5.4	-17
COc1cccc(CNC(=O)CSc2ccc(-c3cccs3)nn2)c1	8	-1	-0.3	-0.8%	-0.4	-16
CCOC(=O)N1CCN(CC(O)COc2cc(C)ccc2C(C)C)CC1 (centres undefined)	62	9	-0.7	0.9%	-3.2	0
CCNS(=O)(=O)c1ccc(NC(=O)Cn2cc([N+](=O)[O-])cn2)cc1	7	-8	1.5	0.1%	0.7	nt
